Screening results as filed in PubChem BioAssay.
NPYLR7 ag: mosquito NPYLR7 agonism; HEK293T NPYLR7/Galpha15, GCaMP6s calcium fluorescence; activation, % at 10 µM; actives 0.15% (n = 270,000); in the data active means activation above about 40%;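 further: 0% = vehicle and 100% = reference agonist at the receptor; some compounds past the cut are filed as inactive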
NPYLR7 ag max-min: further read-out of NPYLR7 ag, marked with its call; activation, %; measured here: Max-Min RFU normalised activation; some inactives read as strong as hits;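 span of the calcium signal over five minutes; 0% = vehicle and 100% = native peptide agonist; compound fluorescence can raise it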
Active calls of the source: *; & = joins results of further samples. This is a subset, so the mix of outcomes need not match the whole.

Molecule	NPYLR7 ag	NPYLR7 ag max-min
CC1Cc2cc(S(=O)(=O)N3CCC(Nc4ccccc4)C3)cc(Cl)c2O1 (centres undefined)	10	6
COCCCNc1oc(-c2ccc(COc3cccc(C)c3)o2)nc1C#N	0	4
CC(=O)N1CCc2cc(C(=O)NC3CC(C)(C)Cc4oc(C)cc43)ccc21 (centres undefined)	4	2
CC(C)(C)n1nc2c(c1NC(=O)c1ccc(Cl)cc1)CSC2	-2	-5
Cn1c(SCC(=O)c2c(N)n(C)c(=O)n(C)c2=O)nc2sc3c(c2c1=O)CCCC3	3	5
Cc1ccc(S(=O)(=O)Nn2nnc(-c3ccccc3)c2C)cc1	-5	1
O=C1c2ccccc2CS(=O)(=O)c2ccccc21	-3	-2
COc1cccc2cc(C(=O)Nc3cc(C(F)(F)F)ccc3Cl)c(=O)oc12	-3	-10
O=C(Nc1cccc(Oc2ccccc2)c1)[C@@H]1O[C@H](CO)[C@@H](O)[C@H]1O	5	4
CN(Cc1ccc2c(c1)OCCO2)c1ncnc2cc(-c3ccc(F)cc3)sc12	8	8
CCN(CC(=O)Nc1cc(C(C)(C)C)nn1-c1ccc(F)cc1)C(=O)Nc1cccc(Cl)c1Cl	17	17
CC1CN(C2CC2)CC1NS(=O)(=O)c1c(Cl)cccc1Cl (centres undefined)	-3&2	-6&-2
CCOC(=O)C1=C(O)/C(=C\c2cc(O)c(OC)c(OC)c2)SC1=Nc1cccc(OC)c1	-2	1
CCOc1ccc(-c2nc(-c3ccc[nH]3)cs2)cc1	-6	-8
CN(Cc1csc(Br)c1)c1ncnc2c1cnn2C	18	18
CCCN(C)c1ccc(C(=O)Nc2cc(C(=O)OC)cs2)cc1	1	-3
CC(C)S(=O)(=O)c1oc(-c2cccs2)nc1S(=O)(=O)c1ccc(F)cc1	4	1
CCOc1ccc(S(=O)(=O)N2CCN(c3nc4ccccc4o3)CC2)cc1OCC	1	-6
O=C(Cn1cc(-c2nnc(-c3ccccc3)o2)c2ccccc21)NCc1ccccc1	2	7
CCN(Cc1ccc(Cl)s1)C(=O)c1ccc2nc3n(c2c1)CCC3	-2	-3
O=C(Nc1ccccc1)c1cc2n(n1)CCCN(C(=O)[C@H](O)c1ccccc1)C2	9	8
CCCCCn1c(-c2ccc(C)cc2)n[nH]c1=S	0	1
CCn1c(C2CCN(C(=O)Cn3cnc4ccccc43)CC2)nn(C)c1=O	-1	-6
Cc1ccc(CN(C(=O)CN2CCCC(CO)C2)C2CC2)o1 (centres undefined)	0	-2
O=C(Cc1ccc([N+](=O)[O-])cc1)NCc1nnnn1-c1ccccc1	-7	-8

Given with values under each structure: entries from further up.
Order of results – NPYLR7 ag, NPYLR7 ag max-min
- CC1Cc2cc(S(=O)(=O)N3CCC(Nc4ccccc4)C3)cc(Cl)c2O1 (centres undefined)
 : 10, 6
- COCCCNc1oc(-c2ccc(COc3cccc(C)c3)o2)nc1C#N
 : 0, 4
- CC(=O)N1CCc2cc(C(=O)NC3CC(C)(C)Cc4oc(C)cc43)ccc21 (centres undefined)
 : 4, 2
- CC(C)(C)n1nc2c(c1NC(=O)c1ccc(Cl)cc1)CSC2
 : -2, -5
- Cn1c(SCC(=O)c2c(N)n(C)c(=O)n(C)c2=O)nc2sc3c(c2c1=O)CCCC3
 : 3, 5
- Cc1ccc(S(=O)(=O)Nn2nnc(-c3ccccc3)c2C)cc1
 : -5, 1

Three compounds drawn at random from those above, as already listed:
Molecule	NPYLR7 ag	NPYLR7 ag max-min
COc1cccc2cc(C(=O)Nc3cc(C(F)(F)F)ccc3Cl)c(=O)oc12	-3	-10
CCCCCn1c(-c2ccc(C)cc2)n[nH]c1=S	0	1
CN(Cc1ccc2c(c1)OCCO2)c1ncnc2cc(-c3ccc(F)cc3)sc12	8	8

Additional results.
Molecule	NPYLR7 ag	NPYLR7 ag max-min
CCN(CC)C(=O)Oc1ccc2c(ccn2Cc2cccc(C)c2)c1NC(=O)c1ccc(Cl)c(Cl)c1	2	7
Cc1cc(NC(=O)CCn2nc(-c3cccs3)oc2=O)ccc1Br	0	-1
O=C(COc1ccc(Cl)cc1Cl)Nc1nc2ccc(Cl)cc2s1	-5	-9
O=C(Oc1ccc(Cl)c2ccccc12)N1CCCCC1	-5	-4
CCN(CC)C(=O)Oc1ccc2c(ccn2Cc2cc(C)cc(C)c2)c1NC(=O)c1cc(F)ccc1F	-1	-5
COc1cc(-c2nc3cc(C)ccn3c2NC(C)(C)CC(C)(C)C)ccc1O	-8	-3
COC[C@H](Cc1ccccc1)NC(=O)c1cccnc1Nc1cccc(Cl)c1	-12	-22
CC1CC(=O)Nc2ccccc2N1Cc1ccn(C)c(=O)c1 (centres undefined)	14	8
CSCCC(=O)N1CCCC(Nc2ccc(F)cc2)C1 (centres undefined)	3	1
Cc1ccc(S(=O)(=O)N2CCc3ccc(NC(=O)C4CCCO4)cc3C2)cc1 (centres undefined)	3	2
Nc1nnc(SCc2cccnc2)s1	3	3
COc1ccc(CN2CCN(Cc3ccc4ncccc4c3)CC2CCO)cc1C (centres undefined)	-4	-4
O=C(NC1CC(=O)N(CCCc2ccccc2)C1)c1ccncc1 (centres undefined)	4	3
CCOc1ccc2nc(SCC(=O)Nc3ccccc3C(F)(F)F)sc2c1	-9	-16
COc1ccc(-c2cc(C(=O)Nc3ccc(F)cc3)c(C)n2-c2ccccc2F)cc1	7	13
CCOc1ccc2nc(SCC(=O)Nc3ccc(S(N)(=O)=O)cc3)sc2c1	-9	-17
CCCCC(=O)NNC(=O)c1ccc(=O)n(Cc2ccc(Cl)cc2)c1	-11	-18
Cc1cc(Br)c2c(c1)c(N=NC(=O)COc1cc(C(C)C)ccc1C)c(O)n2C	-10	-15
CN1CCC2(CC1)CN(Cc1cccn1-c1ncccn1)CCCN2C	3	-3
Cc1cc(C(=O)N2CCOCC2)nn1CC(=O)Nc1nccs1	-1	-1
COc1nc(-c2cccs2)n(-c2cccc(NC(=O)c3ccc(C(F)(F)F)cc3)c2)n1	2	13
CCN1CCN(C(=O)c2ccc(CSc3nnc(-c4ccc(C)cc4)n3-c3cccc(Cl)c3)cc2)CC1	2	10
C=CCn1ncc(-c2nc3c(cnn3C3CCCCC3)[nH]2)c1C	-2	-3
Cc1nn(Cc2ccccc2F)c(=O)c2c1cnn2-c1ccc(F)cc1	10	9
O=C1COc2ccc(S(=O)(=O)Nc3cc(Cl)ccc3Oc3ccccc3)cc2N1	1	-1
O=S(=O)(NCCNc1cc(-n2cccn2)ncn1)c1ccccc1	-7	-12
CCS(=O)(=O)c1ccccc1C(=O)NNC(=O)Cc1ccc(Cl)cc1	0	35
O=C(/C=C/c1cccs1)N(CCCn1ccnc1)c1nc2ccc(Cl)cc2s1	-13	-18
COC(=O)c1ccc(-c2nc(CN3CCCCC3CCn3cccn3)c(C)o2)cc1 (centres undefined)	7	12
CCN(CC)CCn1c(C)c(C)n2c3c(=O)[nH]c(=O)n(C)c3nc12	-3	2
C=CC[C@@H]1CC=C[C@@H](C)N1Cc1nc(-c2cc3c(cc2Cl)OCO3)oc1C	1&-8	-4&-13
Cc1ccc(S(=O)(=O)Nc2c(-c3ccccc3)c3cc(C)ccc3[nH]c2=O)cc1	-4	-7
COc1ccccc1C(=O)N(CCN(C)C)c1nc2c(OC)ccc(Cl)c2s1	11	8
CCC(C)N(Cc1cc(NC(=O)COC)ccc1N(C)C)C(=O)c1ccc(F)cc1 (centres undefined)	11	15
O=C(Nc1cc(F)cc(N2CCOCC2)c1)c1ccc2c(c1)CCC2	0	-4
Cc1ccc(N(CC(=O)NCc2cc(-c3ccccc3)n[nH]2)S(C)(=O)=O)cc1	7	0
COc1ccccc1C(=O)N1CCN(c2ccc(Cl)cc2C)C(=O)C1C (centres undefined)	4	8
COc1ccccc1-c1nn(CN(Cc2ccncc2)C2CC2)c(=S)o1	11	7
CC(C)=CC(=O)NCC1CCN(C2CCN(CC(C)C)CC2)C1 (centres undefined)	1	0
CCCCc1nc2ccc(NC(=O)c3c[nH]c(=O)cc3C)cc2[nH]1	1	1
CCCC(O)CN(CCCOC)Cc1cccc(C)c1 (centres undefined)	27	29
CCCCC(NC(C)=O)C(=O)NCCCOc1cccc([N+](=O)[O-])c1 (centres undefined)	-8	-13
COCCOC(=NCC(C)C)NC(=O)c1ccco1	0	8
CCOc1ccc2cc(C3CC(c4ccco4)=NN3C(=O)C(C)C)c(Cl)nc2c1 (centres undefined)	-13	-13
Cc1nn(-c2ccccc2)c(Oc2ccc(F)cc2F)c1CN(CC(C)C)CC(O)COCc1ccccc1 (centres undefined)	5	6
Cc1cccc(-n2nc(C(=O)NCc3ccc(F)cc3)c(=O)n(Cc3cccc(Cl)c3)c2=O)c1	16	16
O=C(CCc1ncc(-c2ccc(F)cc2F)o1)N1CCN(c2ccccc2F)CC1	7	5
COc1ccc(-c2cnc3ncnn3c2N2CCN(C(=O)NCCc3ccc4c(c3)OCO4)CC2)cc1OC	22	11
Nc1ccc2c(c1)OC1(CCCCC1)O2	1	6
CC(=O)N(CCN(C)C)c1nc2c(C)cc(Cl)cc2s1	-1	-2

(list continues)
Molecule	NPYLR7 ag	NPYLR7 ag max-min
Cc1ccc(S(=O)(=O)NC(C)(C)CSc2nncn2NC(=O)c2ccccc2)cc1	-1	0
COc1ccccc1CCNC(=O)C(C1CCCC1)N1CCN(C(=O)Nc2cccc(Cl)c2)CC1 (centres undefined)	-8	-4
O=C(Nc1nnc(COc2ccc(F)cc2)s1)c1ccco1	-2	-10
COC(/C=C/CC/C=C/C(=O)O)C(O)C(C)/C=C(\C)C(O)C(C)C(=O)CCCC(CC(N)=O)CC(=O)O (centres undefined)	0	-9
CN(C(=O)/C=C/c1ccco1)C1CCN(Cc2ccncc2)CC1	31	32
CCSc1ccc(NC(=O)c2ccco2)nn1	7	-3
COc1ccc2cc(-c3c(-c4ccccc4)ncn3CC(O)CO)ccc2c1 (centres undefined)	7	5
COC(=O)c1sc(=S)n(-c2cc(F)ccc2F)c1N	6	4
CCOc1coc(C(=O)Nc2cc(Cl)ccc2C)cc1=O	13	3
Cc1cccc2c1=C/C(=C\c1csnn1)C=2O	0	0
Cc1ccc(C(=O)Nc2onc3c2CCC3)cc1C	17	10
COC(=O)COc1ccc(C=C2C(=O)NC(=S)NC2=O)cc1OC	-10	-15
O=C(c1ccco1)N(CCN1CCOCC1)Cc1c(-c2ccccc2)noc1N1CCCCC1	7	9
COCC(C)NC(=O)Cn1nc(C(F)(F)F)cc1C (centres undefined)	5	-2
CCS(=O)(=O)c1ccc2oc(-c3cccc(OS(=O)(=O)c4cccc(C(F)(F)F)c4)c3)nc2c1	0	4
Cc1noc(C)c1CCC(=O)N(CC1CCCCC1)C1CC1	13	12
O=C(Nc1ccc(N2CCN(C(=O)COc3cccc(Cl)c3)CC2)nc1)c1ccco1	0	0
Cc1ccc(-n2c(CNC(=O)CCc3ccccc3)nnc2SCc2ccccc2C)cc1	-13	-5
Cc1ccc(-c2nc3s/c(=C4\C(=O)N(C)c5ccccc54)c(=O)n3n2)cc1	-7	-14
COc1ccccc1-c1cc(C(=O)NC2CCN(Cc3ccccc3)CC2)nc2cc(C(C)(C)C)nn12	-12	-2
CCN(C)C(=O)c1ccc(N2CC3CC(C2)c2cccc(=O)n2C3)c(NC(=O)c2cc(OC)ccc2Br)c1 (centres undefined)	-5	3
COc1cc(OC)c(OC)cc1C=C1N=C(c2cc(OC)c(OC)c(OC)c2)OC1=O	3	4
CCc1ccccc1Oc1nc(NC(C)C)nc2ccsc12	9	3
COc1ccc(CNC(=O)c2cnc3c(-c4c(F)cccc4Cl)cnn3c2C)cc1	11	-1
Cc1cnc(SCc2cnc(C)nc2N)nc1	10	4
O=C(Nc1ccc2c(c1)CCC2)C1CCN(C(=O)OCC(F)(F)F)CC1	1	-1
Cc1ccc(NC(=O)Nc2c[nH]c3ccccc23)cc1	-4	-7
O=C(c1nn(-c2ccccc2)c(=O)n(Cc2cccc(C(F)(F)F)c2)c1=O)N1CCCC1	-9	-5
COC(=O)c1cc2n(n1)CCCN(C(=O)c1cc(C(C)C)on1)C2	9	4
C=CCOc1ccc(C=C2N=C(c3cccc(Br)c3)OC2=O)cc1	-2	-7
O=C(CC(c1ccccc1)(c1ccccc1)c1ccccc1)N1CCCC1c1nnc2c(C(F)(F)F)cccn12 (centres undefined)	-23	-28
CN(CCN1CCOCC1)C(=O)CC1C(=O)NCCN1Cc1ccc(F)cc1Cl (centres undefined)	3	-2
O=C(NCCc1cccnc1)c1cn(-c2ccccc2)nn1	2	4
O=C(Nc1nncs1)c1ccc(N2CCC3(CCCC3)CC2)nc1	3	0
Cc1ccc(-n2nc(C(C)(C)C)cc2NC(=O)CN(Cc2ccccc2)C(=O)Nc2ccc(F)c(F)c2)cc1	-4	4
CCN1C(=O)NC2C1NC(=O)N2CC (centres undefined)	1	8
O=C(CCN(CCCN1CCOCC1)c1nc(-c2cccc(Br)c2)nc2ccccc12)Nc1ccc(F)cc1	0	6
CC1(C(=O)NC2CCCCCC2)CCN1C(=O)C/C=C/c1ccccc1 (centres undefined)	-1	14
S=C(NNc1ccccc1)NC12CC3CC(CC(C3)C1)C2	7	6
O=C(CCC1CCCO1)N1CC=C(c2c[nH]c3ccccc23)CC1 (centres undefined)	7	6
O=C(CCN(Cc1ccccc1)c1nc(Cc2ccccc2)ns1)N1CCN(c2ccccc2Cl)CC1	22	24
COc1ccc(C2c3ccsc3CCN2CC(=O)N2CCN(C(=O)CSc3ccccc3)C(C)C2)cc1 (centres undefined)	5	14
Cc1oc(C(C)(C)C)cc1C(=O)N1CCN(C(c2ccccc2)c2ccc(Br)cc2)CC1 (centres undefined)	-2	4
